Screening data deposited in PubChem by ICCB-Longwood Screening Facility, Harvard Medical School.
UCH37 DUB inh: inhibitors of human deubiquitinating enzyme UCH37. purified proteasome/UCH37, Ub-AMC cleavage fluorescence. 330,000 tested, 0.33% active. Q9Y5K5. inhibition, % (concentration not given with the values);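 active = mean of two replicates above 20%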;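 note: 0% = compound-free wells with enzyme and 100% = wells lacking proteasome; stock transfer was 100 nL into about 20 µL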
Target sequence (Q9Y5K5 whole entry, looked up): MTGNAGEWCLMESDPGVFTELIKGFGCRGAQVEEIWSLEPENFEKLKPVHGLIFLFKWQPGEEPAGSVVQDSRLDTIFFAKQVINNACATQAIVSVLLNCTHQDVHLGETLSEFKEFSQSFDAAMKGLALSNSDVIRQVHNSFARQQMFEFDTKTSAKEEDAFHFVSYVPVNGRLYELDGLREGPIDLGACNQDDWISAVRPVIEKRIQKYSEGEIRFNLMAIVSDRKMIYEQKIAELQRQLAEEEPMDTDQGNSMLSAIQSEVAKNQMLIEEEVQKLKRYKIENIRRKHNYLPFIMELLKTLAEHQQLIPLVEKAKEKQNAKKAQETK
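Material: human UCH37 enzyme supplied as purified proteasome complex / Amount: 0.15 nM proteasome as dispensed / Buffer or medium: pH 7.4 Tris-HCl (50 mM) with ovalbumin, ATP-MgCl2, DTT / Times: preincubation 30 min, reaction 25 min, room temperature / Technique: AMC fluorescence from Ub-AMC cleavage, excitation 355 nm, emission 460 nm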
E coli growth: blocks Escherichia coli growth; OD600, 23 h; active compounds read low; OD600 absorbance (test concentration not listed); 330,000 tested, 0.21% active; AID 1053175;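 active = OD600 absorbance below the run mean of sample wells minus 3.6 SD, in any replicate, cut at about 0.56 in these data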;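 note: stock transfer was 300 nL into about 60 µL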
Starred values were filed as active, the others as inactive. Some of the compounds tested, so the mix of outcomes need not match the whole.

SMILES	UCH37 DUB inh	E coli growth
Cn1nc(C(F)(F)F)c(C=NOC(=O)c2ccccc2)c1Sc1ccc(Cl)cc1	3.5	0.666
O=C(O)c1ccc(NN=Cc2ccc(-c3ccccc3Cl)o2)cc1	-35.3	0.703
S=C(NN=Cc1ccc(Cl)cc1)N1CCOCC1	5.2	0.702
Cc1ccc(C=NNC(=O)CCn2nc(C)cc2C)c(C)c1	-1.0	0.668
O=C(NN=Cc1ccc(Cl)cc1)Nc1ccccc1	2.7	0.713
CN(C)c1ccc(C=NOC(=O)Nc2ccccc2)cc1	3.2	0.663
CCOc1cc(C=NNC(=O)CN2CCCCC2)ccc1O	-1.3	0.62
Cc1ccc(NN=Cc2ccncc2)cc1	6.7	0.585
Nc1nnnn1CC(=O)NN=C/C=C/c1ccccc1	3.2	0.654
CCOc1cc(C=NO)ccc1OCc1ccc(F)cc1	1.9	0.698
CC(Cn1nnc2ccccc21)=NOC(=O)c1ccccc1C	4.2	0.707
O=C1c2ccc([N+](=O)[O-])cc2NC(c2ccco2)N1N=Cc1ccco1 (stereo not given)	8.6	0.668
CCn1c2ccccc2c2cc(C=Nn3cn[nH]c3=S)ccc21	-3.1	0.65
CC(=NNc1ccc(F)cc1)c1ccc(Cl)s1	-2.7	0.696
CCN(CC)c1ccc(C=NNC(=O)C2CC2)cc1	-249.4	0.719

A different layout for part of the listing above.
UCH37 DUB inh,E coli growth,molecule
3.2,0.654,Nc1nnnn1CC(=O)NN=C/C=C/c1ccccc1
1.9,0.698,CCOc1cc(C=NO)ccc1OCc1ccc(F)cc1

Additional compounds
SMILES	UCH37 DUB inh	E coli growth
CCc1cc(C(Cc2csc(C)n2)=NO)c(O)cc1O	6.5	0.689
CCOC(=O)C1C(=NO)CC(C)(O)C(C(=O)OCC)C1c1ccc(OC)c(OC)c1 (stereo not given)	4.4	0.644
CN=C1SC(CC(=O)Nc2c(C)cccc2C)C(=O)N1N=Cc1cccs1 (stereo not given)	3.2	0.67
O=C1CSC(=Nc2ccccn2)N1C1CCCCC1	1.7	0.728
O=[N+]([O-])c1cc(C=NNc2ccccn2)ccc1Cl	3.2	0.68
CCC(=NNc1ccccc1Cl)c1cnnc(-c2ccccc2)n1	4.9	0.666
Cc1ccc2nc(Cl)c(C=NNC(=O)c3ccccc3O)cc2c1	-6.1	0.687
Cc1cc(C(=O)NN=Cc2ccc(-c3cccc(Cl)c3Cl)o2)n[nH]1	-9.4	0.698
Cc1ccc(Cl)cc1NC(=O)C(=O)NN=Cc1ccc2c(c1)OCO2	-22.5	0.666
C(=Nn1cnnc1)c1ccc(N2CCOCC2)s1	-3.1	0.673
CC1(C(=O)NN=Cc2ccccc2)CC1(Cl)Cl (stereo not given)	3.5	0.635
COc1cccc(C=NNC(=O)c2ccc(N(C)S(=O)(=O)c3ccccc3)cc2)c1OC	3.5	0.719
COc1ccc(C=NOCC(=O)NC(c2ccccc2)c2ccccc2)c(OC)c1	0.3	0.704
NC(=O)NN=Cc1ccc(N2CCOCC2)s1	-2.1	0.675
S=c1[nH]nc(-c2ccncc2)n1N=Cc1cccc2ccccc12	5.0	0.739
COc1ccc(NC(=O)CC(C)=NNC(=O)c2cnccn2)c(OC)c1	1.7	0.624
CC(CCc1ccccc1)=NNC(=O)C(=O)Nc1cccc(Cl)c1	1.0	0.692
O=[N+]([O-])c1cc(S(=O)(=O)N2CCCC2)ccc1NN=Cc1cccnc1	3.1	0.682
CC1CCc2sc(C(=O)NN=Cc3ccc([N+](=O)[O-])cc3)cc2C1 (stereo not given)	1.4	0.672
Cc1ccccc1S(=O)(=O)N=C(c1ccccc1)N1CCOCC1	1.3	0.708
O=C(CSCc1ccccc1)NN=Cc1ccccc1OCc1ccccc1	2.9	0.703
Cc1nc2ccccc2nc1NN=Cc1ccc(O)cc1O	4.6	0.682
O=C(CNc1ccc2ccccc2c1)NN=Cc1ccc(OC(=O)/C=C/c2ccco2)cc1	1.6	0.705
O=C(NN=C1CC(c2ccccc2)Oc2ccccc21)c1ccc(O)cc1 (stereo not given)	0.7	0.541
NC(=O)c1ccc(C(=O)NN=C(Cc2ccccc2)c2ccccc2)cc1	3.0	0.688
C/C(C=NN1CCN(c2ccccc2)CC1)=C/c1ccco1	1.2	0.699
O=C(Cc1cccs1)NN=C/C=C/c1ccco1	12.9	0.684
COc1ccc(C=Nn2c(C)nc3ccccc3c2=O)cc1OC	4.7	0.711
Cc1nn(-c2ccccc2)c(Cl)c1C=NNc1nnc(C)c(=O)[nH]1	4.5	0.645
Cc1cccc(/C=C2/S/C(=N/N=C3CC4CCC3(C)C4(C)C)NC2=O)c1 (stereo not given)	7.4	0.794

Three compounds from above, sorted by the value under UCH37 DUB inh, falling:
SMILES | UCH37 DUB inh | E coli growth
COc1ccc(C=Nn2c(C)nc3ccccc3c2=O)cc1OC | 4.7 | 0.711
Cc1nn(-c2ccccc2)c(Cl)c1C=NNc1nnc(C)c(=O)[nH]1 | 4.5 | 0.645
O=C(CSCc1ccccc1)NN=Cc1ccccc1OCc1ccccc1 | 2.9 | 0.703

The results go on:
SMILES	UCH37 DUB inh	E coli growth
COc1cc(C=NNC(=O)CN(Cc2ccccc2)S(=O)(=O)c2ccc3c(c2)OCCO3)ccc1O	1.6	0.69
CCC(C)c1ccc(NC(=O)CC(C)=NNC(=O)c2cnccn2)cc1 (stereo not given)	8.0	0.666
Cc1ccsc1C=NNC(=O)CN1CCN(Cc2ccccc2)CC1	8.1	0.68
CC(=NNC(=O)CN1CCN(c2ccc(F)cc2)CC1)c1ccco1	2.7	0.685
Cc1cc(C=NNC(=O)CC(=O)NC2CCCCC2)c(C)n1-c1ccc(Cl)cc1	6.0	0.751
CCOc1cc(C=NNC(=O)c2ccc(O)cc2)ccc1Oc1nc(Cl)ncc1F	0.6	0.709
COc1cc(NC(=O)CC(C)=NNC(=O)Cc2ccccc2)c(OC)cc1Cl	-0.3	0.667
CC(=NNC(=O)c1cc(-c2ccc(C)s2)[nH]n1)c1ccncc1	2.0	0.652
CN(C)c1ccc(C=NNC(=O)CCc2nc3ccccc3[nH]2)cc1	-84.4	0.571
CC(=NNC(=O)C1COc2ccccc2O1)c1cccs1 (stereo not given)	5.0	0.71
COc1ccc2c(c1)cc(C(=O)NN=Cc1c(O)c(C(=O)O)cc3ccccc13)n2C	-3.4	0.664
CCOC(=O)c1c(C)[nH]c(C(=O)NN=Cc2cccc(OC)c2)c1C	-1.2	0.667
Cc1cc(C=Nn2cnnc2)c(C)n1-c1ccc(Cl)cc1Cl	1.4	0.669
Fc1ccc(C=NNc2nn[nH]n2)cc1	7.6	0.645
O=S(=O)(c1ccc(NC(=S)NN=Cc2ccc(O)c(O)c2)cc1)N1CCOCC1	5.9	0.611
COc1cc(C=NOCC(=O)Nc2cc(C)on2)ccc1OCc1ccccc1	-3.1	0.686
CC(=NNC(=O)CSCc1ccc(Cl)cc1)c1ccc(NC(=O)c2ccccc2)cc1	-2.6	0.714
COc1cccc(C2C(C(=O)Nc3ccccc3)=C(C)N=c3sc(=Cc4ccc(OCC(=O)O)cc4)c(=O)n32)c1 (stereo not given)	10.5	0.625
O=c1sc(C=NNc2ccccc2)c(Cl)n1Cc1ccccc1	11.4	0.75
CCOc1cc(C=NNC(=O)c2ccc(NC(=O)C(C)(C)C)cc2)ccc1OC(=O)c1ccc(C)cc1	0.8	0.719
Cc1ccc(C=Nc2sc(Cc3ccccc3)c(C)c2C(N)=O)o1	-19.3	0.684
CC(C)(C)OC(=O)COc1ccc(C=NNC(=O)CN2CCCCC2)cc1	2.4	0.681
Cc1cccc(-n2cnc(C(=O)NN=Cc3ccc(Br)cc3)c2)n1	3.2	0.753
CC(=O)c1cccc(NC(=O)CC2S/C(=N/N=Cc3ccccc3)NC2=O)c1 (stereo not given)	4.5	0.685
CCc1n[nH]c(=S)n1N=C/C(C)=C\c1ccccc1	2.3	0.691
CC(=NNC(=O)c1ccc(OC2CCCC2)cc1)c1ccc(C)s1	6.3	0.723
CCC(=NO)c1c(O)c2c(n(-c3ccccc3)c1=O)CCCC2	0.6	0.647
CCN=C(NN=Cc1ccc([N+](=O)[O-])cc1)SC	3.5	0.714
CCOC(=O)CC(C)=NNc1ccc([N+](=O)[O-])cc1[N+](=O)[O-]	8.4	0.681
C/C(C=NNC(=O)c1cc(-c2cccn2C)n[nH]1)=C\c1ccccc1	6.0	0.671
COC(=O)NN=Cc1ccc(OCCSc2ccc(Cl)cc2)c(OC)c1	-0.6	0.704
CN(C)CCCNC(=O)C(=NO)c1ccccc1	3.3	0.702
COc1ccc(C=NNC(=O)C2CCCC2)cc1Br	2.0	0.633
COc1ccc(C(=O)NCC(=O)NN=Cc2ccc([N+](=O)[O-])o2)cc1OC	15.2	0.576
CCOC1(c2ccccc2)CC1C(=O)NN=Cc1cccc([N+](=O)[O-])c1 (stereo not given)	2.2	0.628
CC(/C=C/c1ccccc1)=NNC(=O)c1nc2nc(C)cc(C)n2n1	-26.1	0.686
CC1CCCC(C)N1N=Cc1ccc(C#N)cc1 (stereo not given)	3.3	0.734
COc1cccc(C(=O)ON=C2CCS(=O)(=O)c3sccc32)c1	3.8	0.674
CCCCOc1ccc(CCC(=O)NN=Cc2ccco2)cc1	4.2	0.665
NC(=O)c1cc2ccccc2oc1=NNC(=O)c1ccc(F)cc1	8.1	0.687
CCC(C)[C@H](N)C(=O)NCC1CCC(C(=O)N[C@@H](Cc2ccccc2)C(=O)O)CC1 (stereo not given in full)	1.4	0.637
O=C(NN=Cc1ccc(Br)o1)C1COc2ccccc2O1 (stereo not given)	5.9	0.698
COc1cccc(C=NNC(C)=O)c1OC/C=C/c1ccccc1	3.1	0.709
COc1cc(C=NN2CCN(Cc3ccc(Cl)cc3)CC2)ccc1OC(C)=O	2.5	0.7
CCOc1ccc(N(C(C)C(=O)NN=C(C)c2cccc(NC(=O)c3ccccc3)c2)S(C)(=O)=O)cc1 (stereo not given)	4.4	0.764
COc1cccc(C=NNc2c(Cl)cncc2Cl)c1O	6.6	0.658
COc1cc(C=NNC(=O)CCNC(=O)c2ccccc2Cl)ccc1O	-0.3	0.683
N#CC(=NNc1ccccc1)C(=N)N1CCCCC1	14.4	0.723
CC=NN(c1ccccc1)c1ccccc1	2.9	0.714
CC(/C=C/C=C/c1ccccc1)=NNC(=O)CNc1ccc(C)cc1	4.7	0.671
C=CCOc1ccc(C=Nn2cncn2)cc1OC	1.1	0.704
COc1ccc(-c2cnnc(NN=Cc3ccc(C)o3)n2)cc1	6.0	0.652
COc1ccc(CC(C)=NNC(=O)c2ccc(C)cc2C)cc1	1.8	0.686
CC1(C)C(C=C(Cl)Cl)C1C(=O)NN=Cc1ccccc1F (stereo not given)	1.0	0.668
COc1cc(OC)nc(N=CNO)n1	1.3	0.628
CCOC(=O)c1c(C)[nH]c(C(C)=NO)c1C	3.6	0.7
O=C(NN=Cc1ccc(O)c(O)c1)NC12CC3CC(CC(C3)C1)C2	3.4	0.674
CC(=NNc1ccc(Cl)c(C(=O)O)c1)c1cccs1	5.4	0.696
CCOc1cc(C=Nn2nnnc2N)ccc1O	-9.9	0.635
Cc1cccc(OC(C)C(=O)NN=Cc2ccncc2)c1 (stereo not given)	-0.7	0.669

The results go on:
SMILES	UCH37 DUB inh	E coli growth
CC(=NOCC(=O)NC(C)C)c1cccs1	1.0	0.698
CCOC(=O)Cc1cc(=O)[nH]c(N=C(N)Nc2ccc(C)cc2C)n1	3.4	0.732
COc1ccc(C=NNC(=O)Cc2csc(Nc3cccc(C(F)(F)F)c3)n2)cc1C	0.1	0.713
COCCNC(=S)NN=C(C)c1cccc([N+](=O)[O-])c1	0.2	0.676
NC(=O)NN=Cc1cccc(OCc2ccc(F)cc2)c1	3.0	0.727
O=C(NN=Cc1c(Cl)cccc1Cl)c1n[nH]c2c1CCCC2	2.8	0.702
O=C(C=NO)Nc1ccccc1	0.2	0.752
C(/C=C/c1ccccc1)=NNc1nc2ccccc2s1	-9.5	0.704
O=[N+]([O-])c1ccc(Nc2nc(NN=Cc3ccc4c(c3)OCO4)nc(N3CCCCC3)n2)cc1	9.9	0.726
C/C(C=Nn1c(-c2ccco2)n[nH]c1=S)=C/c1ccccc1	7.0	0.705
O=C(ON=C1C(=O)N(c2ccccc2)c2ccccc21)C1CC1	2.8	0.736
Cc1cc(C)cc(OCC(=O)ON=C(N)c2ccccn2)c1	-3.5	0.711
S=c1[nH]nc(-c2ccncc2)n1N=Cc1ccccc1Cl	6.5	0.627
S=c1[nH]nc(-c2ccncc2)n1N=C/C=C/c1ccco1	15.3	0.676
CC(=NNC(=O)c1ccccc1F)c1cccc(NC(=O)c2ccccc2)c1	5.3	0.69
Cc1ccc(N=Nc2ccc(O)c(C=NNC(=O)c3ccc(N)cc3)c2)cc1C	8.6	0.735
COc1cc(OC)c(OC)cc1C=Nn1c(COc2ccccc2)n[nH]c1=S	6.1	0.693

One compound at a time, from the list above. Screens in order: UCH37 DUB inh	E coli growth
S=c1[nH]nc(-c2ccncc2)n1N=C/C=C/c1ccco1 is listed with 15.3	0.676
C/C(C=Nn1c(-c2ccco2)n[nH]c1=S)=C/c1ccccc1 is listed with 7.0	0.705
Cc1ccc(N=Nc2ccc(O)c(C=NNC(=O)c3ccc(N)cc3)c2)cc1C is listed with 8.6	0.735
C(/C=C/c1ccccc1)=NNc1nc2ccccc2s1 is listed with -9.5	0.704
COc1cc(OC)c(OC)cc1C=Nn1c(COc2ccccc2)n[nH]c1=S is listed with 6.1	0.693
